Source: PubChem BioAssay
CapD inh = CapD enzyme inhibition | purified CapD enzyme, fluorescence intensity read-out; active compounds read low; some hits fall short of the stated cut | z-score (concentration not given with the values) | 140,000 compounds, 0.23% hits | AID 492967;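 active = z-score under -4 in either of two replicates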;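 also: stock transfer was 100 nL into about 40 µL; score is relative to mean and spread of the plate; one replicate is shown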
AID504770 = E. coli YBA685 growth inhibition, screen for V. cholerae RctB inhibitors. 130,000 compounds, 0.27% hits. AID 504770. z-score (test concentration not listed). E. coli YBA685 rctB-dependent plasmid, OD600 growth, 3 h; active compounds read low;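 active = z-score under -2 on both plates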;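 also: wells of about 30 µL received 100 nL stock; score is relative to mean and SD of the test wells; the first replicate is given; strong numbers were not always called active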
An asterisk follows results filed as active; i = inactive; · = no result given; & = joins results of further samples.

SMILES	CapD inh	AID504770
Cc1cc(C)c(S(=O)(=O)Cc2ccccc2)c(Cl)n1	0.095	-0.7
O=C(CSc1nnc(CCCN2C(=O)c3cccc4cccc(c34)C2=O)n1-c1ccccc1)N1CCCCC1	1.9	·
CCOc1ccc(-c2nc(C#N)c(N3CCCC3)o2)cc1	79	-0.85
COc1cccc(-c2nc(-c3ccccc3)c(-c3ccccc3)[nH]2)c1	19	·
O=C(Cc1cccc(F)c1)NC1CCOc2ccccc21 (centres undefined)	·	-0.4
CN(C)CCCNc1oc(-c2ccccc2Cl)nc1S(=O)(=O)c1ccc(F)cc1	-0.015	-0.65
O=C(NCc1ccccc1Cl)c1nsc2ccccc12	0.34	0.05
CCCn1nc(C(=O)NCc2ccccc2)c2ccccc2c1=O	·	-0.95
O=C(Nc1cccc(C(F)(F)F)c1)N1CCN(C2c3ccccc3-c3ccccc32)CC1	-0.74	-0.45
OCc1noc(-c2cccs2)n1	-0.36	-1.7
Cc1cc2nc(C(C)(C)C)cc(N)n2n1	4.3	-0.9
CCCCCc1ccc(CC(=O)O)cc1	-0.06	0.25
COc1ccc(C(=O)N2N=C(C)CC2(O)c2ccc(Br)cc2)cc1 (centres undefined)	-0.4	·
c1ccc(C2CCCNC2)cc1 (centres undefined)	·	1
CCN(CC)CCOc1ccc(/C(C)=N\O)cc1	0.14	-1.5
Nc1nc(C(F)(F)F)cc(=O)n1N	0.45	0.2
CC(C)(C)c1ccccc1OCC(=O)Nc1ccc(OCc2ccccc2)cc1	0.22	0.1
Cc1[nH]n(-c2ccccc2)c(=S)c1/C=N/c1nc(-c2ccccc2)cs1	0.41	0.75
O=C1Nc2ccccc2N(O)N1c1cc(-c2ccccc2)[nH]n1	-0.32	-0.55
CCC1(C)NC(=O)N(/N=C/c2c(O)ccc3ccccc23)C1=O (centres undefined)	·	-0.95

Brought forward from above: 3 entries, followed by the next part.
SMILES	CapD inh	AID504770
Cc1[nH]n(-c2ccccc2)c(=S)c1/C=N/c1nc(-c2ccccc2)cs1	0.41	0.75
O=C1Nc2ccccc2N(O)N1c1cc(-c2ccccc2)[nH]n1	-0.32	-0.55
CCC1(C)NC(=O)N(/N=C/c2c(O)ccc3ccccc23)C1=O (centres undefined)	·	-0.95
COc1ccccc1CNC(=O)c1ccccc1OC	0.36	0.45
COc1ccc(N2C(=O)CSC2c2cc3c(cc2Br)OCO3)c(OC)c1 (centres undefined)	0.54	·
CCOC(=O)c1nc(C)nc(Sc2n[nH]c(-c3ccccc3)n2)c1C	0.2	0.35
COc1cc(C=NCCCN2CCN(CCCN=Cc3cc(OC)c(OC)c(OC)c3)CC2)cc(OC)c1OC	0.84	·
COc1ccc(C(=O)c2ccccc2)c(OCC(=O)NC23CC4CC(CC(C4)C2)C3)c1	-0.48	2.1
CC(=O)N(/C=C1\SC(=S)N(CC(F)(F)F)C1=O)c1ccccc1	-1.7	1.5
Cn1c(C(=O)N2CCCC(C(=O)N3CCc4ccccc4C3)C2)cc2sccc21 (centres undefined)	0.26	-0.8
Cc1oc2ccc(O)c(Cl)c2c1C(=O)O	0.6	-0.35
CCCOc1ccccc1C(c1c(C)n(C)n(-c2ccccc2)c1=O)c1c(C)n(C)n(-c2ccccc2)c1=O	-0.19	·
CCOC(=O)c1oc2ccc(Br)cc2c1COC(=O)C1CC2CCCC(C1)C2=O (centres undefined)	·	1.1
CCN(Cc1ccncc1)C(=O)COc1ccccc1O	0.3	-0.05
CS(=O)(=O)c1cnc(-c2ccccn2)nc1-c1ccc(C(F)(F)F)cc1	0.39	·
Cc1ccc(NC(=S)NC(=O)CC2CC(C)(C)OC2=O)cc1 (centres undefined)	-0.7	-0.8
O=[N+]([O-])c1cccc(Cl)c1Oc1ccc(-c2ccc(Oc3c(Cl)cccc3[N+](=O)[O-])cc2)cc1	0.46	·
CC(=O)NCCSc1nnnn1-c1ccccc1	-0.015	0
COc1cc(Br)c(CNC(C)(C)CO)cc1OC	0.18	-0.4
CCc1ccc(C(=O)Nc2ccc3nc(C)ccc3c2)cc1	0.35	·
O=NN(CCCl)C(=O)NCCCl	-0.24	·
Cc1c(C)c(C)c(CSc2ccccc2N)c(C)c1C	0.93	1.2
COC(=O)Cc1nc(Nc2ccc(F)c(Cl)c2)c2c(C)c(C)sc2n1	0.36	·
N#Cc1c(NC2CCCCC2)nc(-c2ccco2)c2c1CCCC2	6.6	1.7
C=C(C(=O)O)C(CC(=O)O)C(=O)O (centres undefined)	0.79	-0.75
CN(CCc1ccccn1)C(=O)c1cccnc1Oc1ccccc1	0.46	-0.3
O=C(O)c1ccccc1C(=O)Nc1ccc(S(=O)(=O)Nc2nccs2)cc1	-1.6&-1.4	0.5
NC(=O)c1cccnc1Oc1ccccc1	-0.34	·
CCOc1ccc(C(NC(=O)c2ccco2)c2ccc(OC)c(OC)c2)cc1 (centres undefined)	·	-0.4
COc1ccc(-c2csc(NCCCN(C)C)n2)cc1	·	-0.35
O=C(c1ccccc1)c1ccc(C(=O)N2CCN(c3ccc(O)cc3)CC2)cc1	·	-1.2
CC(NS(=O)(=O)c1ccccc1)C(c1cccs1)N1CCN(c2ccccc2)CC1 (centres undefined)	-0.03	2.2
Cc1ccc(C)c(NC(=O)CN(C)S(=O)(=O)c2ccc3c(c2)CCCC(=O)N3)c1	0.92	1.2
CCN1CCN(C(c2cccs2)C(C)NS(C)(=O)=O)CC1 (centres undefined)	-0.2	-0.65
CCc1ccc(NC(=O)NCc2c(C)nn(C)c2C)cc1	0.95	0.75
COc1cc2c(cc1OC)C(C(=O)N1CC(C)CC(C)C1)C(c1cccnc1)N(C)C2=O (centres undefined)	-0.19	-0.55
Cc1nnsc1-c1onc(C)c1C(=O)O/N=C(\N)c1cc(C(F)(F)F)cc(C(F)(F)F)c1	0.84	-1.3
N=c1oc2ccc(Cl)cc2cc1C(=O)Nc1ccc(F)cc1	i	-0.45
CC1(C)OC2C(COS(C)(=O)=O)OC(n3cnc4c(=O)[nH]cnc43)C2O1 (centres undefined)	0.18	·
O=C1CN(C(=O)c2ccccc2)c2ccccc2N1	-0.84	·
CCOCCC(=O)N1CCN(C)CC1	-0.33	2.7
CCOC(=O)c1c(NC(=O)CSc2nnc(CNC(=O)c3ccco3)n2-c2ccccc2OC)sc2c1CCC2	-0.84	·
COc1cccc(C2CC(=O)Nc3c2cc(Br)c2ccccc32)c1OC (centres undefined)	0.46	·

In another format: 4 of the compounds above.
| Structure | CapD inh | AID504770 |
| --- | --- | --- |
| CC(NS(=O)(=O)c1ccccc1)C(c1cccs1)N1CCN(c2ccccc2)CC1 (centres undefined) | -0.03 | 2.2 |
| Cc1ccc(C)c(NC(=O)CN(C)S(=O)(=O)c2ccc3c(c2)CCCC(=O)N3)c1 | 0.92 | 1.2 |
| CCN1CCN(C(c2cccs2)C(C)NS(C)(=O)=O)CC1 (centres undefined) | -0.2 | -0.65 |
| CCc1ccc(NC(=O)NCc2c(C)nn(C)c2C)cc1 | 0.95 | 0.75 |

Compounds from the list above containing a CF3 group (5):
SMILES	CapD inh	AID504770
O=C(Nc1cccc(C(F)(F)F)c1)N1CCN(C2c3ccccc3-c3ccccc32)CC1	-0.74	-0.45
Nc1nc(C(F)(F)F)cc(=O)n1N	0.45	0.2
CC(=O)N(/C=C1\SC(=S)N(CC(F)(F)F)C1=O)c1ccccc1	-1.7	1.5
CS(=O)(=O)c1cnc(-c2ccccn2)nc1-c1ccc(C(F)(F)F)cc1	0.39	·
Cc1nnsc1-c1onc(C)c1C(=O)O/N=C(\N)c1cc(C(F)(F)F)cc(C(F)(F)F)c1	0.84	-1.3

Next section
SMILES	CapD inh	AID504770
Cn1c(=O)n(C)c2cc(/C=C3\C(=O)NC(=O)N(c4ccc(Cl)cc4)C3=O)ccc21	1.4	-0.15
Cc1nn2c(C)c(C(=O)Nc3ccccc3)cnc2c1C#N	·	-2
COCCOC(=O)c1sc(=S)n(CCOC)c1N	·	2.2
CCc1nnc(NC(=O)COC(=O)CSc2nc(-c3ccccc3)cc(-c3ccccc3)n2)s1	-0.11	2.6
Cc1[nH]c(C(=O)NCCCN2CC(C)CC(C)C2)c(C)c1C(=O)NC1CCCCC1 (centres undefined)	0.25	0.4
Cn1c(CN)nnc1SCc1ccccc1	·	0.1
O=C(N/N=C/c1c[nH]c2ccccc12)c1ccccc1Br	0.61	·
O=C(O)CN(CCc1ccccc1)S(=O)(=O)c1ccccc1	49	0.35
Cc1c(C(=O)N2CCCCCC2)oc2ccccc12	-0.21	2.3
NC1=NC(=O)C(CC(=O)O)CS1 (centres undefined)	0.28	-0.3
c1ccc2sc(NC3=NCN(CC4CCCO4)CN3)nc2c1 (centres undefined)	·	-0.6
COc1cc(/C=c2\sc3nc4ccccc4n3c2=O)ccc1OCc1cccc(F)c1	-0.02	·
O=C(CCNc1ccc(Cc2ccncc2)cc1)c1ccco1	0.05	0.8
CCOc1ccc(S(=O)(=O)N(CC(=O)N2CCC(C)CC2)c2ccccc2)cc1	0.22	0.2
O=C(O)C1CCN(C(=O)/C=C/c2ccccc2)CC1	·	0.35
O=S1(=O)CCN(Cc2cc3ccccc3s2)CC1	-0.27	-1.3
Cc1ccc(OCCOCCN2CCCCC2)c(C)c1	-0.08	0.35
CCOc1ccc(OCCN2CCN(C)CC2)cc1	-0.48	-0.55
COc1cc(O)c(/C=N/NC(=O)c2ccccc2Oc2ccccc2)c(OC)c1	0.04	·
O=C(O/N=C/c1ccc2c(c1)OCO2)c1ccccc1Br	0.43	·
CC1CN(c2ccccc2)C(c2ccccc2)N1c1ccccc1 (centres undefined)	6.7	·
CCN(CC(=O)Nc1ccc2c(c1)OCCO2)c1ccc(S(=O)(=O)N2CCOCC2)cn1	·	-0.4
COc1cc(C2C(C#N)=C(N)Oc3nc[nH]c(=O)c32)ccc1OCC(N)=O (centres undefined)	0.28	0.35
CS(=O)(=O)c1cnc(-c2ccccc2)nc1Oc1ccc(Cl)cc1	-0.13	·
CCc1cc(=O)[nH]c(SCc2ccc(F)cc2)n1	-0.34	-0.45
COc1ccc(Cl)cc1NC(=O)CN1C(=O)CSC(C)C1=O (centres undefined)	·	-0.15
CCCNC(=O)c1ccc(-n2c(-c3ccccc3)cc3c2CCCC3)cc1	45	0.5
CC1CCCCN1C(=O)COC(=O)Cc1c[nH]c2ccccc12 (centres undefined)	·	-0.95
NC(=O)/C(=N/O)C1=NC2(CCCCC2)Cc2ccccc21	-0.58	-1.3
COc1cccc(CN2CCC(C(=O)N3CCc4ccccc4C3)CC2)c1OC	-0.49	-0.2
O=C(OCc1cc(=O)n2c3c(sc2n1)CCCC3)C1CCCN1S(=O)(=O)c1ccccc1F (centres undefined)	·	-0.75
Cc1ccc(Nc2nc3nonc3nc2N2CCCCC2)cc1C	-0.64	·
CCN(CC)c1ccc(NC(=O)c2ccc(C)cc2)c(N(CC)CC)n1	-0.71	2.7
Cn1c(C(=O)NCCCCc2ccccc2)cc2ccccc21	0.48	·
CC/C(O)=C(\C#N)c1nc2ccccc2[nH]1	-0.27	0.2
CCOc1ccc(C2c3[nH]c4ccccc4c3CCN2C(=O)c2cc3cc(Br)ccc3o2)cc1 (centres undefined)	-0.39	·
CN1C(=O)c2ccccc2N(C)C1c1ccc(F)cc1 (centres undefined)	·	-0.25
CSc1nnc2c(n1)OC(C)Nc1ccccc1-2 (centres undefined)	-0.09	1.8
O=C(CN1C(=O)C(c2ccccc2)=NC12CCCC2)Nc1ccc(Cl)cc1	-1.4	-1.2
COCCN1C(=O)/C(=C/c2cn(CC(=O)OC)c3ccccc23)C(=O)N(c2ccccc2)C1=O	-1.1	1.2
Cn1c(=O)cc(OCCCC(=O)NC2CCCCC2)c2ccccc21	-0.17	-1.4
O=C1CC(c2ccc(S(=O)(=O)N3CCCCC3)cc2)CN1 (centres undefined)	-0.03	-1.2
O=C(NCCc1ccccc1)C1CC(=O)N2CCN=C2S1 (centres undefined)	0.12	-1.1
CCOC(=O)NCc1ccc2[nH]c(C)cc2c1	-0.2&0.8	-0.15&0.25
CC1(C)CC(=O)C(C=NCCO)=C(O)C1	0.11	-0.55
CCOC(=O)C1CCN(C(=O)c2ccc(NC(=O)C3CCCO3)cc2)CC1 (centres undefined)	0.36	-0.35
O=C(CCC(=O)N1CCOc2ccccc21)N1CCOCC1	0.36	0.85
Cc1c(C(=O)O)c2ccccc2n1C	·	-1
CN(Cc1ccccc1)S(=O)(=O)c1ccc2c(c1)n(C)c(=O)c(=O)n2C	-0.17	1.9
Cc1csc(NN=C2CCCCC2)n1	0.29	-0.35
C=CCn1c(SCC(=O)c2ccccc2)nnc1-c1sc2nc(C)cc(C)c2c1N	-0.34	0.05
CC(C)(C)C(=O)COC(=O)c1cc(Br)ccc1Cl	-0.1	0.8
Cc1cc(CCN)c(C)n1-c1ccccc1	·	-1.5
CCOC(=O)C1=NN(C(=O)c2cccc([N+](=O)[O-])c2)C(O)(C(C)(C)C)C1 (centres undefined)	-0.52	·
CCn1nccc1NC(=O)c1ccc(Cl)c(S(=O)(=O)N(C)c2ccccc2)c1	·	-0.5
CN(CC(=O)Nc1sc2c(c1C(=O)c1cccs1)CCCC2)C1CCCCC1	·	0.1
NC1(C(F)(F)F)Oc2cc(Cl)c(Cl)cc2O1	-0.03	-2.1
CSc1ccccc1NC(=O)Cc1ccccc1	-0.24	-0.35
CCCN1CC=C2C(C#N)=C(N)C(C#N)(C#N)C(c3ccc(OCC(N)=O)cc3)C2C1 (centres undefined)	·	-0.2
Cc1cc2occ(CC(=O)Oc3ccc(-c4nnco4)cc3)c2cc1C(C)C	·	0.1
C=C1c2ccccc2N=C(SCC(=O)Nc2cccnc2Cl)N1C	·	-0.3
CCOc1ccccc1NC(=O)c1cccc(NC(=O)c2ccco2)c1	0.055	-0.8
CC(=O)NC12CC3CC(C1)CC(C(=O)N1CCN(Cc4ccccc4)CC1)(C3)C2	·	-0.25

Whole records from above. Order of values: CapD inh | AID504770
CCn1nccc1NC(=O)c1ccc(Cl)c(S(=O)(=O)N(C)c2ccccc2)c1 across the screens: · | -0.5
CC1(C)CC(=O)C(C=NCCO)=C(O)C1 across the screens: 0.11 | -0.55
Cc1c(C(=O)O)c2ccccc2n1C across the screens: · | -1

Some of the compounds tested (hit frequency here may not be typical).
